Source: PubChem
Ran importin: RanGTP/importin-beta interaction disruptors – biochemical, CFP-Ran/YFP-importin-beta FRET, RCC1, cell-free, primary screen (AID 434961); CFP-Ran/YFP-importin-beta FRET, cell-free; stronger effect = higher value; inhibition, %; 0.2% of 7,700 active;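 active means more than half of the replicate wells above 15% inhibition; inconclusive means exactly half above it; inactive means fewer than half above it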;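 further: 0% = DMSO wells and 100% inhibition = RanGDP control wells on each plate; stock of unstated strength diluted about 400-fold; mean of two wells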
Active calls of the source: *; u = inconclusive. An excerpt; count on the stated rates, not on these rows.

The opening 2 entries (preview)
SMILES	Ran importin
Cc1noc(C)c1NC(=O)Nc1ccc2c(c1)C(=O)N([C@@H](C)CO)C[C@H](C)[C@H](CN(C)S(=O)(=O)c1cccs1)OCCCC[C@@H](C)O2	-4.8
C[C@H](CO)N1C[C@H](C)[C@@H](CN(C)C(=O)Nc2ccccc2)Oc2ccc(NC(=O)NC3CCCCC3)cc2CC1=O	-4.9

All compounds of this part (from the top)
SMILES	Ran importin
Cc1noc(C)c1NC(=O)Nc1ccc2c(c1)C(=O)N([C@@H](C)CO)C[C@H](C)[C@H](CN(C)S(=O)(=O)c1cccs1)OCCCC[C@@H](C)O2	-4.8
C[C@H](CO)N1C[C@H](C)[C@@H](CN(C)C(=O)Nc2ccccc2)Oc2ccc(NC(=O)NC3CCCCC3)cc2CC1=O	-4.9
CNC[C@H]1Oc2c(N)cccc2C(=O)N([C@H](C)CO)C[C@@H]1C	0.2
COC(=O)N(C)C[C@H]1OCc2cn(nn2)CCCC(=O)N([C@@H](C)CO)C[C@@H]1C	-0.8
C[C@H]1CN([C@@H](C)CO)C(=O)Cc2cc(NC(=O)Nc3ccccc3)ccc2O[C@@H]1CN(C)C(=O)Nc1ccccc1	-0.7
C[C@@H]1CN([C@H](C)CO)C(=O)c2cc(N(C)C)ccc2O[C@@H]1CN(C)C	-6.6
COc1ccc(CN(C)C[C@H]2Oc3ccc(NC(=O)C4CC4)cc3C(=O)N([C@@H](C)CO)C[C@H]2C)cc1	-3.1
C[C@H]1CN([C@@H](C)CO)C(=O)c2cccc(NC(=O)c3ccc(-c4nccs4)cc3)c2O[C@H]1CN(C)CC1CC1	1.6
C[C@@H]1CN([C@@H](C)CO)C(=O)c2cccc(NC(=O)C3CCOCC3)c2O[C@@H]1CN(C)Cc1ccc(Cl)c(Cl)c1	-0.5
Cc1noc(C)c1NC(=O)Nc1ccc2c(c1)C(=O)N([C@H](C)CO)C[C@H](C)[C@H](CN(C)C)O2	1.3
Cc1noc(C)c1NC(=O)N(C)C[C@H]1Oc2ccc(NS(=O)(=O)c3cn(C)cn3)cc2C(=O)N([C@@H](C)CO)C[C@H]1C	-0.3
C[C@H]1CCCCO[C@H](CN(C)Cc2ccncc2)[C@@H](C)CN([C@@H](C)CO)C(=O)c2cc(NS(C)(=O)=O)ccc2O1	1.8
COc1ccc(S(=O)(=O)N(C)C[C@@H]2Oc3c(NS(=O)(=O)c4cccs4)cccc3C(=O)N([C@@H](C)CO)C[C@@H]2C)cc1	1.8
CC(C)NC(=O)N(C)C[C@@H]1Oc2ccc(NS(=O)(=O)c3cccs3)cc2CC(=O)N([C@H](C)CO)C[C@H]1C	u
C[C@H]1CCCCO[C@@H](CN(C)Cc2ccncc2)[C@@H](C)CN([C@@H](C)CO)C(=O)c2cc(NC(=O)Nc3ccccc3)ccc2O1	-0.3
Cc1noc(C)c1NC(=O)N(C)C[C@H]1Oc2ccc(NS(=O)(=O)c3cn(C)cn3)cc2C(=O)N([C@@H](C)CO)C[C@@H]1C	1.0
C[C@@H]1CN([C@@H](C)CO)C(=O)c2cc(NS(C)(=O)=O)ccc2O[C@H]1CN(C)Cc1ccccc1	3.0
C[C@@H]1CN([C@H](C)CO)C(=O)c2cccc(N(C)C)c2O[C@H]1CN(C)C	2.2
CC(C)NC(=O)N(C)C[C@@H]1OCCCC[C@H](C)Oc2ccc(NC(=O)Nc3ccc(F)cc3)cc2C(=O)N([C@H](C)CO)C[C@@H]1C	-0.6
C[C@@H]1CCCCO[C@@H](CN(C)C(=O)c2ccccc2)[C@H](C)CN([C@H](C)CO)C(=O)c2cc(NC(=O)Nc3ccc(F)cc3)ccc2O1	3.8
COc1ccc(CN(C)C[C@@H]2OCCCC[C@H](C)Oc3ccc(NC(=O)Nc4c(C)noc4C)cc3C(=O)N([C@H](C)CO)C[C@@H]2C)cc1	0.1
COc1ccc(CN(C)C[C@@H]2Oc3ccc(NC(=O)Nc4c(C)noc4C)cc3CC(=O)N([C@H](C)CO)C[C@@H]2C)cc1	0.5
C[C@@H]1CN([C@@H](C)CO)C(=O)c2cc(NS(=O)(=O)c3cccs3)ccc2O[C@H]1CN(C)Cc1ccc(-c2ccccc2)cc1	2.6
COc1ccc(S(=O)(=O)Nc2cccc3c2O[C@@H](CN(C)C)[C@H](C)CN([C@@H](C)CO)C3=O)cc1	-1.1
COc1ccc(CN(C)C[C@@H]2Oc3ccc(NC(=O)c4ccncc4)cc3C(=O)N([C@@H](C)CO)C[C@@H]2C)cc1	7.3
Cc1noc(C)c1S(=O)(=O)N(C)C[C@H]1OCCCC[C@H](C)Oc2ccc(N(C)C)cc2C(=O)N([C@@H](C)CO)C[C@@H]1C	1.2
C[C@H](CO)N1C[C@H](C)[C@H](CN(C)Cc2ccncc2)OCCCC[C@H](C)Oc2ccc(NS(=O)(=O)c3ccccc3)cc2C1=O	1.1
CNC[C@@H]1Oc2c(NS(=O)(=O)c3cccs3)cccc2C(=O)N([C@@H](C)CO)C[C@H]1C	1.0
COc1ccccc1NC(=O)N(C)C[C@H]1OCc2cnnn2CCCC(=O)N([C@@H](C)CO)C[C@H]1C	-1.6
C[C@H](CO)N1C[C@H](C)[C@H](CN(C)C)OCCCC[C@H](C)Oc2ccc(NC(=O)Nc3ccc(C(F)(F)F)cc3)cc2C1=O	6.2
C[C@@H]1CN([C@@H](C)CO)C(=O)Cc2cc(NS(=O)(=O)c3cccs3)ccc2O[C@H]1CN(C)Cc1ccccc1	3.1
C[C@H]1CCCCO[C@H](CN(C)C(=O)CCC(F)(F)F)[C@@H](C)CN([C@@H](C)CO)C(=O)c2cc(NS(=O)(=O)c3ccccc3)ccc2O1	0.4
COc1ccc(S(=O)(=O)Nc2cccc3c2O[C@H](CN(C)Cc2ccc(C(=O)O)cc2)[C@H](C)CN([C@H](C)CO)C3=O)cc1	-2.5
C[C@H]1CN([C@@H](C)CO)C(=O)c2cc(NC(=O)CCC(F)(F)F)ccc2O[C@H]1CN(C)C	1.5
CC(C)NC(=O)Nc1cccc2c1O[C@@H](CN(C)Cc1ccc(Cl)c(Cl)c1)[C@@H](C)CN([C@@H](C)CO)C2=O	9.3
C[C@@H]1CCCCO[C@@H](CN(C)C)[C@H](C)CN([C@@H](C)CO)C(=O)c2cc(NC(=O)c3ccncc3)ccc2O1	4.7
C[C@@H]1CN([C@H](C)CO)C(=O)c2cc(NC(=O)NC3CCCCC3)ccc2O[C@@H]1CN(C)S(=O)(=O)c1ccccc1	-2.2
C[C@H]1CN([C@@H](C)CO)C(=O)CCCn2cc(nn2)CO[C@@H]1CN(C)C(=O)CCCN(C)C	3.9
C[C@H](CO)N1C[C@H](C)[C@@H](CN(C)Cc2ccc3c(c2)OCO3)Oc2c(NC(=O)c3ccncc3)cccc2C1=O	4.3
C[C@@H]1CCCCO[C@H](CN(C)C)[C@H](C)CN([C@@H](C)CO)C(=O)c2cc(NC(=O)Nc3ccc(C(F)(F)F)cc3)ccc2O1	-0.8
C[C@H]1CN([C@@H](C)CO)C(=O)CCCn2nncc2CO[C@@H]1CN(C)C	-1.2
C[C@@H]1CN([C@@H](C)CO)C(=O)c2cc(NS(=O)(=O)c3ccccc3)ccc2O[C@@H](C)CCCCO[C@H]1CN(C)C(=O)CCCN(C)C	-4.1
COc1ccc(CN(C)C[C@H]2Oc3c(NC(=O)c4cc(C)nn4C)cccc3C(=O)N([C@@H](C)CO)C[C@@H]2C)cc1	-2.0
C[C@@H]1CN([C@H](C)CO)C(=O)Cc2cc(NC(=O)Cc3cn(C)c4ccccc34)ccc2O[C@H]1CN(C)Cc1ccncc1	-3.1
C[C@H](CO)N1C[C@H](C)[C@@H](CN(C)C)OCCCC[C@H](C)Oc2ccc(NC(=O)Nc3ccc4c(c3)OCO4)cc2C1=O	7.1
C[C@H]1CN([C@@H](C)CO)C(=O)Cc2cc(NC(=O)Cc3cn(C)c4ccccc34)ccc2O[C@H]1CN(C)C(=O)NC1CCCCC1	5.3
C[C@H](CO)N1C[C@H](C)[C@H](CN(C)C(=O)Nc2ccc(N3CCN(C)CC3)cc2)OCc2cnnn2CCCC1=O	0.5
CNC[C@H]1OCCCC[C@H](C)Oc2ccc(NS(=O)(=O)c3c(C)noc3C)cc2C(=O)N([C@H](C)CO)C[C@H]1C	4.0
C[C@H]1CN([C@@H](C)CO)C(=O)c2cc(NC(=O)NC3CCCCC3)ccc2O[C@@H]1CN(C)S(=O)(=O)c1cn(C)cn1	2.0
C[C@@H]1CCCCO[C@H](CN(C)C(=O)c2ccccc2)[C@@H](C)CN([C@H](C)CO)C(=O)c2cc(NC(=O)Nc3ccc(F)cc3)ccc2O1	u
Next part.
SMILES	Ran importin
CCCN(C)C[C@@H]1Oc2ncc(/C=C/c3ccccc3)cc2C(=O)N([C@H](C)CO)C[C@@H]1C	-1.0
CNC[C@@H]1Oc2ccc(NC(=O)Nc3cccc4ccccc34)cc2CC(=O)N([C@H](C)CO)C[C@H]1C	-2.8
Cc1noc(C)c1NC(=O)Nc1ccc2c(c1)CC(=O)N([C@@H](C)CO)C[C@@H](C)[C@H](CN(C)C(=O)Nc1cccc3ccccc13)O2	-0.5
CC(C)NC(=O)Nc1ccc2c(c1)C(=O)N([C@H](C)CO)C[C@H](C)[C@H](CN(C)CC1CC1)O2	-6.5
C[C@H](CO)N1C[C@H](C)[C@@H](CN(C)Cc2ccncc2)Oc2ccc(NC(=O)Nc3ccc(C(F)(F)F)cc3)cc2CC1=O	-8.1
Cc1noc(C)c1NC(=O)Nc1ccc2c(c1)C(=O)N([C@@H](C)CO)C[C@H](C)[C@@H](CN(C)C(=O)Nc1c(C)noc1C)OCCCC[C@H](C)O2	-0.6
C[C@@H]1CN([C@H](C)CO)C(=O)CCCn2cc(nn2)CO[C@H]1CN(C)C(=O)Nc1ccc(-c2cccs2)cc1	2.1
COc1ccc(CN(C)C[C@H]2Oc3c(NS(C)(=O)=O)cccc3C(=O)N([C@@H](C)CO)C[C@@H]2C)cc1	-2.2
Cc1noc(C)c1NC(=O)Nc1cccc2c1O[C@H](CN(C)C(=O)Nc1c(C)noc1C)[C@@H](C)CN([C@H](C)CO)C2=O	0.7
CNC[C@@H]1OCCCC[C@@H](C)Oc2ccc(NS(=O)(=O)c3cccs3)cc2C(=O)N([C@H](C)CO)C[C@@H]1C	-0.1
Cc1noc(C)c1NC(=O)N(C)C[C@H]1Oc2c(NC(=O)NC3CCCCC3)cccc2C(=O)N([C@@H](C)CO)C[C@@H]1C	2.2
C[C@@H]1CCCCO[C@H](CN(C)S(=O)(=O)c2cccs2)[C@@H](C)CN([C@@H](C)CO)C(=O)c2cc(N(C)C)ccc2O1	u
Cc1ccc(OC(=O)N(C)C[C@@H]2OCc3cn(nn3)CCCC(=O)N([C@H](C)CO)C[C@H]2C)cc1	2.6
COc1ccc(S(=O)(=O)N(C)C[C@@H]2Oc3c(NC(=O)C4CC4)cccc3C(=O)N([C@@H](C)CO)C[C@@H]2C)cc1	-3.0
C[C@@H]1CCCCO[C@H](CN(C)Cc2ccncc2)[C@H](C)CN([C@@H](C)CO)C(=O)c2cc(N(C)C)ccc2O1	-2.9
C[C@H](CO)N1C[C@H](C)[C@@H](CN(C)Cc2ccc(Cl)c(Cl)c2)Oc2ccc(NC(=O)C3CC3)cc2CC1=O	4.8
Cc1noc(C)c1S(=O)(=O)N(C)C[C@H]1Oc2ccc(NS(=O)(=O)c3cccs3)cc2C(=O)N([C@@H](C)CO)C[C@H]1C	-2.1
CNC[C@H]1OCCCC[C@@H](C)Oc2ccc(N)cc2C(=O)N([C@H](C)CO)C[C@@H]1C	7.0
C[C@H](CO)N1C[C@H](C)[C@@H](CN(C)Cc2ccc(Cl)c(Cl)c2)Oc2c(NS(=O)(=O)c3cn(C)cn3)cccc2C1=O	4.4
COc1ccc(CN(C)C[C@H]2OCCCC[C@@H](C)Oc3ccc(NC(=O)Nc4c(C)noc4C)cc3C(=O)N([C@H](C)CO)C[C@H]2C)cc1	1.8

2 compounds picked at random from those above, as already listed:
SMILES	Ran importin
Cc1noc(C)c1S(=O)(=O)N(C)C[C@H]1Oc2ccc(NS(=O)(=O)c3cccs3)cc2C(=O)N([C@@H](C)CO)C[C@H]1C	-2.1
CNC[C@H]1OCCCC[C@@H](C)Oc2ccc(N)cc2C(=O)N([C@H](C)CO)C[C@@H]1C	7.0

Following part
SMILES	Ran importin
Cc1noc(C)c1NC(=O)N(C)C[C@H]1OCCCC[C@@H](C)Oc2ccc(NC(=O)CCC(F)(F)F)cc2C(=O)N([C@@H](C)CO)C[C@H]1C	-4.0
C[C@@H]1CN([C@@H](C)CO)C(=O)Cc2cc(NC(=O)Cc3ccccc3)ccc2O[C@H]1CN(C)C(=O)NC1CCCCC1	-3.1
C[C@@H]1CN([C@@H](C)CO)C(=O)CCCn2cc(nn2)CO[C@H]1CN(C)C(=O)Nc1ccc(N2CCCCC2)cc1	2.1
C[C@H](CO)N1C[C@H](C)[C@H](CN(C)Cc2ccccc2)OCCCC[C@H](C)Oc2ccc(NC(=O)Nc3ccc4c(c3)OCO4)cc2C1=O	8.0
CNC[C@H]1OCCCC[C@H](C)Oc2ccc(NC(=O)c3ccncc3)cc2C(=O)N([C@H](C)CO)C[C@@H]1C	-3.2
CC(C)NC(=O)Nc1cccc2c1O[C@@H](CN(C)Cc1ccc(Oc3ccccc3)cc1)[C@@H](C)CN([C@H](C)CO)C2=O	4.8
C[C@@H]1CN([C@H](C)CO)C(=O)c2cc(NC(=O)Nc3ccc4c(c3)OCO4)ccc2O[C@@H](C)CCCCO[C@H]1CN(C)C(=O)c1ccccc1	-0.9

Molecules from the list above containing a Cl atom, in the order listed:
SMILES	Ran importin
C[C@@H]1CN([C@@H](C)CO)C(=O)c2cccc(NC(=O)C3CCOCC3)c2O[C@@H]1CN(C)Cc1ccc(Cl)c(Cl)c1	-0.5
CC(C)NC(=O)Nc1cccc2c1O[C@@H](CN(C)Cc1ccc(Cl)c(Cl)c1)[C@@H](C)CN([C@@H](C)CO)C2=O	9.3
C[C@H](CO)N1C[C@H](C)[C@@H](CN(C)Cc2ccc(Cl)c(Cl)c2)Oc2ccc(NC(=O)C3CC3)cc2CC1=O	4.8
C[C@H](CO)N1C[C@H](C)[C@@H](CN(C)Cc2ccc(Cl)c(Cl)c2)Oc2c(NS(=O)(=O)c3cn(C)cn3)cccc2C1=O	4.4
